Bioassay records from PubChem BioAssay.
D2 ag: agonists of human D2 dopamine receptor (beta-arrestin); AID 624465; 360,000 compounds, 0.084% hits; P14416; DiscoveRx PathHunter D2 beta-arrestin, luminescence, 90 min; 100% = 57 uM dopamine signal; activation, % (no concentration beside the values); in the data active = activation above about 40%; inconclusive = about 15% to 40%; inactive = below about 15%; note: compound concentration not given in the record; the text of the record calls up to 30% inactive
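Agonist mode: compounds alone added to overnight-plated D2 PathHunter cells for 90 min at 37 C, with 57 uM final dopamine (EC100) defining full response. Beta-arrestin recruitment detected by chemiluminescent reagent, read after 1 h at ambient temperature.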
TRPV1 potentiator: human TRPV1 potentiation; Q8NER1; TRPV1-expressing cells, Fluo-8 calcium influx, capsaicin EC20 potentiation; host cell line not named in the record; control for the full effect not named in the record; potentiation, % at 8.33 µM; 320,000 compounds, 0.02% hits; AID 540277; active means potentiation above 80%; inconclusive means 30% to 80%; inactive means below 30%; note: 0% is about no effect
Target sequence (Q8NER1 whole entry, looked up): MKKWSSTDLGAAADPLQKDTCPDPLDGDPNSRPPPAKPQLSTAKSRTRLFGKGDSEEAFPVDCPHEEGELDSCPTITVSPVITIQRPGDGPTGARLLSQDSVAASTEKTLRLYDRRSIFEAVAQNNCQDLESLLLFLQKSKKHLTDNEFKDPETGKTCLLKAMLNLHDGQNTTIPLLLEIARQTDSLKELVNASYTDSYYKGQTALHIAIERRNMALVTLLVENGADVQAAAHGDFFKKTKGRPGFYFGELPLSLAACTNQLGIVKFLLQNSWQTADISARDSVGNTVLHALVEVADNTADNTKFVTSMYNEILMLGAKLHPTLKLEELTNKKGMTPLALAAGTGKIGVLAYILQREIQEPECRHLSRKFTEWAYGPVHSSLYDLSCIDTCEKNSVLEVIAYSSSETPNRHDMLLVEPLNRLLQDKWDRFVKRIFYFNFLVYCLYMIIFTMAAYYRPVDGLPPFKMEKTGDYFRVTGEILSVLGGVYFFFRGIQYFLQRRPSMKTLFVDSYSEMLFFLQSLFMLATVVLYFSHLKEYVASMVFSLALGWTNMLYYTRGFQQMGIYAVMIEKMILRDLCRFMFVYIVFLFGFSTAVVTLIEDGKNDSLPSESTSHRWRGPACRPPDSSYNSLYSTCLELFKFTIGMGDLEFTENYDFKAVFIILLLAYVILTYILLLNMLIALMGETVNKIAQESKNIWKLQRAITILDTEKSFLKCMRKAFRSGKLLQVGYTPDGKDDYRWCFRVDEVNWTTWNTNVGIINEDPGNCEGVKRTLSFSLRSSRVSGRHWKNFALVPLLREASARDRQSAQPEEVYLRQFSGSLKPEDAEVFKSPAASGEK
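Fluo-8 calcium influx in TRPV1-expressing cells, kinetic read (ex 480/em 520 nm). Compound added and read 3 min for agonist activity, followed by capsaicin at EC20 final and 2 min further read for enhancement.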
D2 potentiator: potentiates the human D2 dopamine receptor allosterically; P14416; potentiation, % (no concentration beside the values); DiscoveRx D2 beta-arrestin cells, luminescence, 90 min; 100% = 57 uM dopamine signal; AID 624464; 360,000 compounds, 0.23% hits; active = potentiation of 50% or more; inconclusive = 30% to 50%; inactive = 30% or less;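 note: compound concentration not given in the record; tested on top of an EC20 dose of dopamine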
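PathHunter beta-arrestin assay in DiscoveRx D2 cells. Compounds were added with an EC20 of dopamine (50 nM final) for 90 min at 37 deg C. Luminescence was read 1 h after detection reagent, with 57 uM dopamine as the EC100 control.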
Six1-Eya2 blk: blocks human Six1 binding to Eya2 | Q15475+O00167 | AlphaScreen GST-Six1/His-Eya2 binding, biochemical; hits give low values; control for the full effect not named in the record | activity change, % (test concentration not listed) | 360,000 compounds, 0.56% hits; in the data active = activity change below about -65%; inconclusive = about -30% to -65%; inactive = above about -30%; note: % is set by controls: 0 for no effect and ±100 for the full control effect
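AlphaScreen with GST-Six1 and His-Eya2 (5X mix: 250 nM and 500 nM), glutathione donor and nickel acceptor beads; buffer 50 mM Tris pH 8.0, 300 mM NaCl, 1 mM TCEP; 1 h at 37 C in the dark.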
CtBP-E1A inh: CtBP/E1A binding inhibition | activity change, % (concentration not given with the values) | AlphaScreen GST-E1A/His-CtBP binding, 1536-well; hits give low values; control for the full effect not named in the record | 340,000 compounds, 0.49% hits; in the data active means activity change below about -65%; inconclusive means about -30% to -65%; inactive means above about -30%; note: % is set by controls: 0 for no effect and ±100 for the full control effect
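GST-E1A and His-tagged CtBP (125 nM each as 5X stock) were preincubated with pin-transferred compound for 2 h at 37 °C in the dark, then glutathione donor and nickel acceptor beads were added for 1 h before AlphaScreen reading.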
PINK1 modulator: modulators of PINK1 expression | PINK1 immunofluorescence, high-content cytometry, 24 h | Potency, µM (highest dose often 76.6 µM), without a hit: at the top dose activation (PINK1 increase), hits mostly activators | 410,000 compounds, 0.2% hits | AID 624263; active = well fitted activation curve with a large enough effect; inconclusive = small, poorly fitted or top-dose-only effect; inactive = flat fitted curve, though single readings scatter; cell line not stated here;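 note: potency is the fitted concentration of half-maximal effect; % of control where 0% means no effect; nearly all actives have a fitted effect of over 65% in size; a mitochondrial uncoupler was the plate control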
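PINK1 protein, normally rapidly degraded, was detected by immunofluorescence after 24 hour compound treatment of a stable cell line. Titration data (5 concentrations) came from laser-scanning cytometry, with CCCP-treated wells as controls.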
Sfp inh: Sfp phosphopantetheinyl transferase inhibition; Q9F4F7; Biochemical Sfp PPTase activity, qHTS; Potency, µM, for inactives: max response, negative = inhibition, actives largely listed as inhibitors; 310,000 compounds, 3.5% hits; AID 1490; active = well fitted inhibition curve with a large enough effect; inconclusive = small, poorly fitted or top-dose-only effect, or another doubt; inactive = no such curve, though single readings can be large or run the other way;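 note: the enzyme is Sfp with the accession as filed and its product quenches rhodamine fluorescence; potency is the fitted concentration of half-maximal effect; 0% = enzyme reaction without inhibitor and -100% = no enzyme wells; top concentration of the series not given in the record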
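Buffer: 50 mM Hepes-Na pH 7.6, 10 mM MgCl2, 0.01% Nonidet P-40, 0.01% BSA. Enzyme 15 nM, pre-exposed to compound 15 min; substrates then added and fluorescence change tracked over 30 min.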
Starred values were filed as active, the others as inactive; ? = inconclusive; . = not tested or not shown; [ ] = another dose, or the depositor's remark.

SMILES	D2 ag	TRPV1 potentiator	D2 potentiator	Six1-Eya2 blk	CtBP-E1A inh	PINK1 modulator	Sfp inh
O=C(NC(c1ccccc1)c1ccsc1)C1CCN(Cc2ccccc2)CC1 (centres undefined)	-6.2	.	-15	8	-8	1.6%	.
CCC(CC)c1nnc(NC(=O)c2c(C)nn(Cc3ccccc3Cl)c2C)s1	-1.7	7	-2	?	-27	7.5%	-10%
CCOCCc1nnc(NC(=O)CS(=O)(=O)c2ccc(C)cc2)s1	0.5	2	-2	1	3	2.1%	3%
O=C1/C(=C/c2ccncc2)CCc2ccccc21	-2.7	-1	-22	-7	.	2.1%	10%
CCOC(=O)C1CCCN(CCc2ccccc2)C1 (centres undefined)	2.2	0	-4	2	0	0.6%	-11%
CN(CC(=O)N1CCN(Cc2ccccc2)CC1)S(=O)(=O)c1ccc(Br)cc1	-7.9	-18	-44	-4	5	0.3%	8%
Cc1cc(C)cc(CC2CC(=O)N(c3ccc4c(c3)OCCO4)C2=O)c1 (centres undefined)	-0.9	?	-1	1	3	26%[38.3 µM]	9%
CC1CCCCN1c1cc(C#N)c(C#N)cc1[N+](=O)[O-] (centres undefined)	4.2	8	?	-19	-3	.	5%
CCCCOCCCNC(=O)C[C@@H]1C[C@@]2(C(=O)OCC)CCC=C2N(Cc2ccccc2)C1=O	.	.	.	6	-2	0.8%	.
O=C1CC(c2ccc(Cl)cc2)SC(N(c2ccccc2)c2ccccc2)=N1 (centres undefined)	0.1	1	-14	1	9	-0.7%	-13%
Cc1ccccc1S(=O)(=O)Cc1ccc(C(=O)N2CCN(C3CCCCC3)CC2)o1	-5.1	-3	0	1	0	-1.2%	13%
Cc1cc(C)c2c(=O)n(CC(=O)NCCCN3CCOCC3)sc2n1	3.4	-19	-5	0	3	9.2%	1.3µM*
O=C(Nc1cccc(Cl)c1)OCc1cnc(Cl)s1	-1.0	-10	-1	3	6	8.6%	16%
Cc1ccc(N2C(=O)c3cccc4c(Oc5ccccc5[N+](=O)[O-])ccc(c34)C2=O)c(C)c1	-3.7	0	-3	-25	-13	3.9%	9%
N/C(=N\N=C\c1ccc([N+](=O)[O-])cc1)c1nonc1N	3.0	-13	3	-1	-1	0.9%	4%
Cc1cc(C)nc(NC(=O)c2cc([N+](=O)[O-])cc([N+](=O)[O-])c2)n1	7.1	4	22	8	7	-2.1%	13%
O=[N+]([O-])c1ccccc1N/N=C/c1ccc2c(c1)OCO2	-18	1	-5	-14	.	12%	19%
CC1CCN(c2ccc(NC(=S)NC(=O)c3ccco3)cc2)CC1	-4.1	4	-8	?	-13	6.2%	-6%
CS(=O)(=O)N(CC(=O)N1CCCCCC1)c1ccc(Cl)cc1	-7.0	0	-11	7	7	0.6%	-7%
COC(=O)CSc1nc2sc3c(c2c(=O)[nH]1)CCC3	-2.8	-5	-7	3	5	0.5%	0%
Cc1cc(=O)oc2cc(OCC(=O)c3ccccc3)ccc12	0.6	0	-1	6	8	-0.9%	5%
COc1ccc(OC)c(C(=O)COC(=O)C2CC3CCCC(C2)C3=O)c1 (centres undefined)	1.0	8	-4	-5	16	1.3%	13%
Cc1cc(NC(=O)c2ccc3c(c2)OCO3)ccc1NC(=O)c1ccco1	-2.6	-2	1	-1	2	1.4%	25%
CCCC(C)NC(=O)C1CCN(C(=O)C2CC(=O)N(c3ccc(C)cc3)C2)CC1 (centres undefined)	-3.7	8	-3	0	-2	-1.1%	10%

Grouped by structure, the entries above with a thiophene ring, fused or not (2)
SMILES	D2 ag	TRPV1 potentiator	D2 potentiator	Six1-Eya2 blk	CtBP-E1A inh	PINK1 modulator	Sfp inh
O=C(NC(c1ccccc1)c1ccsc1)C1CCN(Cc2ccccc2)CC1 (centres undefined)	-6.2	.	-15	8	-8	1.6%	.
COC(=O)CSc1nc2sc3c(c2c(=O)[nH]1)CCC3	-2.8	-5	-7	3	5	0.5%	0%

Following part.
SMILES	D2 ag	TRPV1 potentiator	D2 potentiator	Six1-Eya2 blk	CtBP-E1A inh	PINK1 modulator	Sfp inh
COc1ccc(CCNC(=O)c2ccc(Cl)cc2Cl)cc1	-2.6	0	-13	5	7	-2.5%	6%
O=S(=O)(Nc1ccccc1Cl)c1ccc2[nH]c(=S)oc2c1	0.2	3	0	-2	-11	1.7%	2%
CC(C)(C)c1ccc(C(=O)NNc2ncccc2-n2cccc2)cc1	0.2	-4	7	-1	.	-0.1%	1%
CN(C)S(=O)(=O)c1cccc(NC(=S)N/N=C/c2cc(Br)ccc2O)c1	-9.4	2	-14	-88*	-94*	?	5%
COC(=O)c1ccccc1NC(=O)Cn1c(CCC(=O)O)ccc1-c1cccs1	-3.0	?	-10	-1	-6	-0.1%	56µM*
Cc1cccc(C(=O)Nc2cc(Cl)ccc2-n2cncn2)c1[N+](=O)[O-]	-0.5	24	-6	26	-28	7.4%	.
Cn1c(=O)cc(OCCCC(=O)NC2CCCC2)c2ccccc21	-2.3	15	-8	-1	-8	2.7%[38.3 µM]	4%
O=C(CSCc1ccc(Cl)cc1)NCC1CCCO1 (centres undefined)	-2.4	-14	-10	4	3	-0.4%	18%
COc1ccc(-n2nc3c(c2NC(=O)C2CC2)CS(=O)(=O)C3)cc1	-1.6	-1	-23	-6	9	1.4%	21%
Nc1ccc(-c2nnc(-c3ccc(-c4ccccc4)cc3)o2)cc1	5.2	1	-46	-3	6	2.4%	?
Cc1cc2ncc(C(=O)N=CN(C)C)cn2n1	3.0	-3	-1	6	0	-0.6%	20%
O=C(NC1CCCc2ccccc21)c1cc(Cl)ccn1 (centres undefined)	-1.4	-15	-10	0	9	2.6%	-27%
COc1ccc(CC(=O)Cc2ccc(OC)c(OC)c2)cc1OC	-2.8	.	-10	24	-4	1.5%	.
COc1ccc(NC(=O)COC(=O)CCc2ccccc2)c(OC)c1	-2.4	-4	-14	9	9	4.1%	10%
Cc1ccc(CSc2ccc(-c3ccc4c(c3)OCO4)nn2)cc1	2.3	20	-10	-1	-4	?	-19%
CCOc1ccc(-n2c(C)c(C(C)=O)c3cc(OCC(N)=O)ccc32)cc1	0.3	-18	8	-1	8	-0.3%	-29%
COc1cc(/C=N/NC(=O)c2cc(C)oc2C)ccc1O	0.7	-12	-1	-13	-2	-0.7%	10%
C/C(=N/Nc1ccc(C(=O)c2c(C)cc3ccccn23)cc1[N+](=O)[O-])c1ccc(O)cc1	3.8	.	-6	-8	0	5.8%	.
COc1ccccc1OCC(=O)Nc1nc2c(s1)CCCC2	0.8	-1	-9	-5	.	0.6%	1%
COc1ccc(S(=O)(=O)N(C)C[C@H]2OCc3cn(nn3)CCCC(=O)N([C@@H](C)CO)C[C@@H]2C)cc1	-5.5	.	-2	12	-25	3.1%	.
CS/C(=C\[N+](=O)[O-])Nc1ccc(F)cc1	-4.5	13	-18	17	0	0.9%	-5%
COc1ccc(NC(=O)C2CCN(C(=O)c3ccc(OC)cc3)CC2)cc1	-3.7	-8	-5	-2	4	-1.8%	-4%
COc1cc(C(C2C(=O)CC(C)(C)CC2=O)C2C(=O)CC(C)(C)CC2=O)ccc1OC(C)=O	-3.1	.	0	11	3	-1.2%	.
COc1ccccc1CNC(=O)c1cc(-c2ccccc2)nn1CC1CC(c2cccnc2)=NO1 (centres undefined)	3.0	.	2	2	5	-0.5%	.
O=C1C(NS(=O)(=O)c2cccs2)=C(N2CCN(c3cccc(C(F)(F)F)c3)CC2)C(=O)c2ccccc21	-5.4	-7	-30	-68*	-80*	4.1%	-9%
CCS(=O)(=O)c1ccc2c(c1)N(S(=O)(=O)c1cccs1)CC(C(=O)O)O2 (centres undefined)	-10	3	-15	-12	-10	-0.7%	13%
CCCCNC(=O)OCCSCCS(=O)(=O)c1ccc(Cl)cc1	-2.4	-8	0	4	1	-0.4%	7%
Cc1cccc(OCCn2ccnc2)c1	0.2	-2	-3	-1	3	0.6%	-1%
O=C(NNc1c2ccccc2nc2ccccc12)C12CC3CC(CC(C3)C1)C2	-4.4	-9	-9	4	-15	-1.0%	7%
CCOC(=O)Cc1csc(NC(=O)c2cccc(Cl)c2)n1	-7.1	.	-3	12	1	3.9%	.
CCn1c(SCC(=O)Nc2ccc(Br)cc2)nc2sc3c(c2c1=O)CCN(C)C3	1.4	?	-29	-4	1	-0.2%	3%
COc1cccc(C(=O)Nc2ccc(-c3nc4ccccc4o3)c(O)c2)c1	1.8	0	11	8	11	14%[38.3 µM]	-20%
CCCCOc1ccc(C(=O)N/N=C/c2ccc(OCCN3CCCCC3)c(OC)c2)cc1	-3.6	26	9	11	3	-0.5%	-10%
COC(=O)Nc1ccc(S(=O)(=O)N2CCC(C(=O)N3CCCC(C)C3)CC2)cc1 (centres undefined)	3.9	6	-5	4	9	-1.0%	13%
CN(C(=O)c1cccc(NC(=O)Cc2ccc(NC(=O)C3CCCN(C(=O)C4CCC4)C3)cc2)c1)C1CCC1 (centres undefined)	0.2	.	6	-2	3	-0.1%	.
O=C(c1cc2ccccc2oc1=O)N(Cc1ccco1)CC1CCCO1 (centres undefined)	-3.4	-4	0	1	4	5.5%[38.3 µM]	-1%
CC(=O)Nc1ccc(NC(=O)c2ccc(CN3CCc4ccccc4C3)cc2)cc1	2.0	2	-40	-11	0	?	13%
Cc1cn([C@H]2C[C@H](O)[C@@H](CCC(=O)NCCc3ccc4ccccc4c3)O2)c(=O)[nH]c1=O	-3.8	.	-2	0	1	1.6%	.
CCNc1nc(Oc2ccc(Cl)cc2Cl)cc(C(F)(F)F)n1	-1.2	-12	-7	29	37	.	4%
FC(F)(F)c1cccc(-c2cc3nc(NC4CCCCC4)ccn3n2)c1	4.8	.	7	21	34	4.2%	.
C=CCn1c(SCC(=O)Nc2ccc(F)cc2F)nc2c([nH]c3ccccc32)c1=O	-2.4	-2	-15	9	0	5.3%	-17%
COC(=O)C(NC(=O)c1ccccc1Cl)(Nc1ncc(S(=O)(=O)c2ccc([N+](=O)[O-])cc2)s1)C(F)(F)F (centres undefined)	2.6	-10	?	-15	-24	-2.5%	15%

Of the compounds above, four have an NH in an aromatic ring.
SMILES	D2 ag	TRPV1 potentiator	D2 potentiator	Six1-Eya2 blk	CtBP-E1A inh	PINK1 modulator	Sfp inh
COC(=O)CSc1nc2sc3c(c2c(=O)[nH]1)CCC3	-2.8	-5	-7	3	5	0.5%	0%
O=S(=O)(Nc1ccccc1Cl)c1ccc2[nH]c(=S)oc2c1	0.2	3	0	-2	-11	1.7%	2%
Cc1cn([C@H]2C[C@H](O)[C@@H](CCC(=O)NCCc3ccc4ccccc4c3)O2)c(=O)[nH]c1=O	-3.8	.	-2	0	1	1.6%	.
C=CCn1c(SCC(=O)Nc2ccc(F)cc2F)nc2c([nH]c3ccccc32)c1=O	-2.4	-2	-15	9	0	5.3%	-17%
